HNF4A DNA FP – change in binding of human HNF4 alpha to DNA. HNF4a-FITC DNA binding, fluorescence polarization, 1 h. activity change, % at 10 µM. 360,000 compounds, 0.3% hits; in the data active means activity change above about 30%, passing the limit was not always enough;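 further: controls were the assay level and a saturating level of protein; the project sought stronger binding though the title names inhibitors; some compounds called inactive have numbers as strong as hits; positive values seem to mean higher polarization but the record does not say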
Target sequence (P41235 whole entry, looked up): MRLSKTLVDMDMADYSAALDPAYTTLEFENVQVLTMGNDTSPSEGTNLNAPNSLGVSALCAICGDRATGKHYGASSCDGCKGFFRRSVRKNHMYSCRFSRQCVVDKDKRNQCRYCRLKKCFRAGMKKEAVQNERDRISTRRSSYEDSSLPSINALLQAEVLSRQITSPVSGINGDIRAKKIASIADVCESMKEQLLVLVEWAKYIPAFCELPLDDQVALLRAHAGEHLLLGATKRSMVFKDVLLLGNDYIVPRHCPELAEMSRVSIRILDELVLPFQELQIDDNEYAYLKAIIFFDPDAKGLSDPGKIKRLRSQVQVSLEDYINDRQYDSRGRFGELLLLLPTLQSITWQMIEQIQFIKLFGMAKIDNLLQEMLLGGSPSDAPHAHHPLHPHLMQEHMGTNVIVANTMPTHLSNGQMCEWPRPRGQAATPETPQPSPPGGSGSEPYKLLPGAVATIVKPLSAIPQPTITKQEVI
LANA-H2B inh – blocks KSHV LANA binding to histone H2A/H2B; Q9QR71; inhibition, % (no concentration beside the values); cell-free LANA-H2A/H2B peptide, fluorescence polarization; AID 2629; 320,000 compounds, 0.6% hits; in the data active means inhibition mostly above about 10%, no sharp cut-off; inactive means mostly below about 6.7%;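 further: stock transfer was 7.5 nL into about 10 µL; 0% = median of vehicle wells and 100% = median of positive control wells; one replicate is shown; the record names a cut of 25% in any replicate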
FGF22 binding – shifts melting point of recombinant human FGF22; Q9HCT0; recombinant FGF22 thermal shift, SYPRO orange fluorescence; percent of sucrose octasulfate shift, DMSO zero; AID 651658; 340,000 compounds, 1.5% hits; calls only at 9.99 µM;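 active means melting point raised past a set limit in the mean and every replicate; three in four hits are not shown here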
Target sequence (Q9HCT0 whole entry, looked up): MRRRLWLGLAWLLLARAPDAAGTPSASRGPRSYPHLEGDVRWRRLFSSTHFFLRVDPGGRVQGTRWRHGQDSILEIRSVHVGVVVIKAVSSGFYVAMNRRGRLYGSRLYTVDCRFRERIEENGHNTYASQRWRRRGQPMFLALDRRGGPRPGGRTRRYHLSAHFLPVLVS
B2AR ag – human beta-2 adrenergic receptor agonism by FAP; P07550; AID 504454; 340,000 compounds, 0.43% hits; Am2.2-beta2AR cells, FAP receptor internalization, flow cytometry; reference of the scale not given here; response, % (concentration not given with the values);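 active means response above a set limit, near 3 SD of response in nonfluorescent compounds, cut at about 42% in these data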;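 further: stock transfer was 100 nL into about 11 µL; a reference agonist was the positive control; negative values mostly stem from fluorescent compounds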
UCH37 DUB inh – human UCH37 deubiquitinating enzyme inhibition | 330,000 compounds, 0.33% hits | AID 588478 | inhibition, % (concentration not given with the values) | purified proteasome/UCH37, Ub-AMC cleavage fluorescence;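 active means mean of two replicates above 20%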;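 further: 0% = compound-free wells with enzyme and 100% = wells lacking proteasome; stock transfer was 100 nL into about 20 µL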
Target sequence (Q9Y5K5 whole entry, looked up): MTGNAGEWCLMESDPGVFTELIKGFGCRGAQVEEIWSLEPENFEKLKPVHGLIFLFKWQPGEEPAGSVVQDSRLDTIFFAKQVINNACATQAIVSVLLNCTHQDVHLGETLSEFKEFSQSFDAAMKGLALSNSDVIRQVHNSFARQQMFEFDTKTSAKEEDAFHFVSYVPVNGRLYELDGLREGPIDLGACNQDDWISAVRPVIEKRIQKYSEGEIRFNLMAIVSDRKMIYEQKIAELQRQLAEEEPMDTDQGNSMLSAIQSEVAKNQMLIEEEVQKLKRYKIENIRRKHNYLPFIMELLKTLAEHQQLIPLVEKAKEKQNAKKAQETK
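Signal – fluorescence, ex 355 nm, em 460 nm · System – Proteasome-bound UCH37 · Input – 0.15 nM proteasome as dispensed · Timing – 30 min preincubation with enzyme, 25 min cleavage at room temperature · Read-out basis – percent inhibition of cleavage signal versus uninhibited and no-proteasome wells · Medium – Tris-HCl pH 7.4 with ATP-MgCl2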
ALR inh – inhibitors of human sulfhydryl oxidase ALR. P55789. purified ALR, DTT oxidation, H2O2 HRP-luminol luminescence. inhibition, % (test concentration not listed). 290,000 compounds, 3.8% hits. AID 485317;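 active means mean and each replicate at 75% or more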;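 further: stock transfer was 7.5 nL into about 7.5 µL; 0% = neutral wells and 100% = wells with inactivated enzyme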
E coli growth – blocks Escherichia coli growth; OD600, 23 h; hits give low values; 330,000 compounds, 0.21% hits; OD600 absorbance (concentration not given with the values);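 active means OD600 absorbance below the run mean of sample wells minus 3.6 SD, in any replicate, cut at about 0.56 in these data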;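 further: stock transfer was 300 nL into about 60 µL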
Starred values were filed as active, the others as inactive; i = inactive; nt = no result given. These rows are one share of the data. The share of hits here may be higher or lower than overall.

SMILES | HNF4A DNA FP | LANA-H2B inh | FGF22 binding | B2AR ag | UCH37 DUB inh | ALR inh | E coli growth
COc1ccc(C2C(C(N)=O)=C(C)Nc3nc(-c4cccc(Cl)c4)nn32)cc1OC (stereo unspecified) | -3.3 | 1.5 | nt | -1.3 | -3.3 | 0.5 | 0.688
CCOC(=O)c1cnc2c([N+](=O)[O-])cnn2c1C | 0.3 | -1.1 | i | -3.4 | 10.6 | -7.3 | 0.698
Cc1noc(C)c1C(=O)NCc1ccco1 | 4.7 | -0.3 | nt | 10.7 | 0.4 | -25.7 | 0.666
Clc1ccc2nc3ccccn3c2c1 | 1.4 | 1.8 | nt | -6.4 | i | -17.2 | 0.631
CCc1ccc(OCc2nnc(SCC(=O)N3CCOCC3)o2)cc1 | 0.8 | 1.7 | i | -0.1 | 0.6 | nt | 0.73
COC(=O)[C@H](CC(C)C)N1Cc2cc(OC)cc(OC)c2-c2ccccc2S1(=O)=O | 1.5 | nt | i | -7.1 | -6.2 | nt | 0.681
COc1ccc([N+](=O)[O-])cc1N(CC(=O)Nc1ccccc1C(=O)N1CCOCC1)S(C)(=O)=O | -2.8 | -3.2 | i | -5.7 | 0.8 | 3.2 | 0.667
COc1ccc(OCC(=O)Nc2ccc(S(=O)(=O)Nc3nc(C)cc(C)n3)cc2)cc1 | 1.0 | -5.7 | i | 5.0 | 2.5 | 1.6 | 0.72
COc1ccc([C@H]2CC(=O)C=C(c3ccc(C(F)(F)F)c(C(F)(F)F)c3)C2)cc1OC | -2.0 | 4.3 | i | 8.1 | 4.6 | -1.4 | nt
O=C(Nc1ccc(Oc2ccc(NC(=O)C3CCCO3)cc2)cc1)C1CCCO1 (stereo unspecified) | 0.1 | 2.6 | nt | -3.2 | -4.6 | -12.6 | 0.693
CC(CCc1ccccc1)NC(=O)CN1CCOc2ccccc21 (stereo unspecified) | 8.1 | -3.8 | i | 3.9 | -0.7 | 98.5* | 0.747
O=C(NC1CCN(Cc2ccccc2)CC1)c1cccc(S(=O)(=O)Nc2ccc(Br)cc2)c1 | 4.0 | 5.3 | i | 13.2 | 3.7 | 0.2 | 0.669
COCCNC(=O)C(c1ccc(F)cc1)N(C(=O)CCC(=O)Nc1ccccn1)C1CCCCC1 (stereo unspecified) | 2.1 | -2.6 | i | -8.6 | 0.9 | nt | 0.704
COc1ccc(/C=N\NC(=O)c2ccc(=O)[nH]n2)cc1O | 1.4 | 4.0 | nt | -4.3 | nt | 99.5* | nt
O=C1CCCN1CC(O)CS(=O)(=O)Cc1ccc(Cl)c(Cl)c1 (stereo unspecified) | -1.3 | 1.4 | i | -4.0 | 3.9 | -5.0 | 0.634
C1CCCN(CCCCN2CCCCCC2)CC1 | 3.0 | -3.4 | nt | 0.7 | 1.8 | -4.6 | 0.662
CC(C)NC(=O)c1onc(CSc2ccc(F)cc2)c1C(=O)O | -1.7 | -1.1 | i | -2.4 | 4.5 | 4.0 | 0.714
CCOc1ccc(NC(=O)NC23CC4CC(CC(C4)C2)C3)cc1 | -2.6 | -4.5 | i | 1.2 | 2.5 | -3.9 | 0.672
Cc1cc(C(F)F)n2ncc(C(=O)NCc3ccccc3)c2n1 | -0.7 | -0.9 | nt | 1.4 | -5.1 | 6.1 | 0.641
O=C(C1CC1)N1CCc2cc(Br)cc(S(=O)(=O)NCC3COc4ccccc4O3)c21 (stereo unspecified) | -3.2 | -3.5 | nt | -2.5 | -0.7 | 0.1 | 0.728
COc1cccc(CN2CCNC(=O)C2CC(=O)N(C)CCC2CCOCC2)c1OC (stereo unspecified) | 0.1 | -2.8 | i | -0.8 | 2.7 | -2.4 | 0.682
O=C(CSc1ccccn1)c1ccc2c(c1)OCO2 | 1.3 | -1.6 | nt | 52.5* | 4.5 | 68.0 | 0.685
O=C1N/C(=N\N=C\c2cccs2)SC1Cc1cccc(Cl)c1Cl (stereo unspecified) | -2.6 | -0.7 | nt | 0.0 | nt | -1.3 | nt
CCc1nn2c(NCCOC)cc(C)nc2c1-c1ccc(F)cc1 | 1.3 | 0.5 | i | 9.1 | -2.9 | 6.9 | 0.704
Cc1ccc(CNCCNCCO)s1 | 3.7 | 1.5 | i | 10.3 | 4.9 | 0.2 | 0.713
COc1ccccc1N(C)S(=O)(=O)c1ccc(C(=O)OCC(=O)c2c[nH]c3ccccc23)cc1 | 0.3 | -4.8 | i | -7.9 | 0.0 | -4.5 | 0.698
CCC(C)[C@H](NC(=O)N1CCCCC1)C(=O)OC (stereo partly specified) | 0.2 | 1.1 | i | 4.1 | -0.4 | 0.8 | 0.703
O=C(Nc1nnc(C2CCCO2)s1)c1ccc(Br)cc1 (stereo unspecified) | 2.5 | 2.1 | i | -1.8 | 3.1 | -8.5 | 0.707
COc1cccc(-n2cnc3sc(C)c(C)c3c2=O)c1 | 3.8 | 0.7 | nt | -13.9 | 2.4 | -2.6 | 0.623
Cc1ccc(S(=O)(=O)c2cc3c(=O)n4ccccc4nc3n(C3CCCC3)c2=N)cc1 | 3.5 | 4.5 | i | 13.9 | -51.1 | -2.5 | 0.677
Nc1cc2c(cc1Cl)-c1ccccc1C2 | 3.1 | nt | i | -0.8 | 3.2 | nt | 0.696
CCCc1cc(=O)oc2cc(C)cc(O)c12 | 1.4 | -0.3 | nt | 3.7 | 1.8 | 8.9 | 0.593
CC(OC(=O)C1=Cc2ccccc2OC1)C(=O)NC1CCCC1 (stereo unspecified) | -2.2 | -2.5 | i | -4.5 | -4.5 | 1.0 | 0.695
O=C(N/N=C1\NC(=O)C(CO)(CO)S1)c1ccccc1 | 3.3 | 0.1 | i | -3.3 | 3.3 | -12.6 | 0.711
O=C(NC1CCCc2ccccc21)c1n[nH]c(=O)c2ccccc12 (stereo unspecified) | -5.8 | -0.3 | i | -6.9 | 0.9 | -20.9 | 0.716
CC1CCCN(CCCNC(=O)C2CC(=O)N(CCc3ccccc3)C2)C1 (stereo unspecified) | 8.9 | 9.3 | i | -3.3 | 5.4 | -42.3 | 0.695
CCOC(=O)C1=C(COC(=O)C2CC(=O)N(c3ccc(CC)cc3)C2)NC(=O)NC1C (stereo unspecified) | -0.3 | -2.0 | i | 1.3 | 5.1 | -6.7 | 0.663
Cc1ccc(-n2nnnc2SCC(=O)N2CC(=O)Nc3ccccc32)cc1 | 8.7 | -5.0 | nt | 5.8 | 0.6 | -6.7 | 0.656
O=C(Cn1cnc2cc([N+](=O)[O-])ccc2c1=O)Nc1cccc2ccccc12 | -0.3 | -2.6 | i | -0.9 | 0.7 | -10.2 | 0.673
CCC1=NC(c2ccccc2)N(O)C1(C)C (stereo unspecified) | -1.5 | -1.6 | nt | 6.0 | -4.1 | nt | 0.746
COc1cccc(Oc2nc(-c3ccncc3)nc3ccccc23)c1 | 3.6 | -4.4 | i | 14.6 | 1.8 | -1.1 | 0.667
O=C(CN1C(=O)COc2ccccc21)N1CCN(C2CCCCC2)CC1 | 1.0 | 2.1 | i | -2.4 | nt | 5.9 | nt
C=CC[C@@H](CC(=O)N[C@H](CO)Cc1ccccc1)C(=O)N[C@@H](C)COC(=O)[C@@H](CC=C)CC(=O)OC(C)(C)C | 3.3 | 1.1 | i | -5.0 | 0.9 | -7.3 | nt
O=C(Nc1ccnc(-c2ccncc2)n1)c1ccccc1Cl | -3.8 | -2.7 | i | 1.5 | 1.7 | -7.3 | 0.669
O=C(NCCN1CCOCC1)c1ccc(=O)oc1 | 0.2 | -2.0 | nt | 1.8 | -7.0 | 1.6 | 0.71
CCc1ccc(NC(=O)C(=S)NC2CCCCC2)cc1 | 5.0 | 0.9 | i | -2.4 | 4.4 | -6.9 | 0.695
COc1ccccc1N1CCN(C2CCCN(C(=O)C3=NN(C)C(=O)CC3)C2)CC1 (stereo unspecified) | 1.2 | 1.4 | i | -0.2 | 3.5 | 11.0 | 0.702
CCCc1cc(O)c2c(C)cc(=O)oc2c1 | 1.4 | 5.5 | i | 11.7 | -1.6 | nt | 0.575
COC(=O)[C@@]12CCCCN1[C@H](c1ccc(-c3ccc(Cl)c(Cl)c3)c(OC)c1)[C@@H]1C(=O)N(C)C(=O)[C@@H]12 | 0.3 | nt | nt | 3.5 | 0.8 | nt | nt
CN(NC1CC(=O)N(c2ccccc2)C1=O)c1ccccc1 (stereo unspecified) | 1.7 | -5.9 | nt | -2.7 | 7.0 | 97.3* | 0.699
Cc1ccc(C(=O)NNC(=S)Nc2cccc3ccccc23)s1 | -2.6 | -0.7 | nt | 1.5 | 2.4 | -12.5 | 0.683
Cc1cc2nc(-c3cccnc3SCC(=O)NCc3ccco3)[nH]c2cc1C | 7.1 | -2.8 | i | 22.5 | -215.6 | 98.6* | 0.732
Cc1cc(NC(=O)c2ccc(Cl)c(S(=O)(=O)N3CCOCC3)c2)no1 | -1.3 | 3.1 | i | -3.7 | 4.8 | 0.1 | 0.652
C/C(=N/NS(=O)(=O)c1ccc(Br)cc1)c1ccc(NC(=O)c2ccc(C)o2)cc1 | -0.6 | -2.0 | nt | -53.9 | nt | -3.3 | nt
O=C(Nc1nncs1)c1ccc(F)c(S(=O)(=O)N2CCCCC2)c1 | -1.0 | nt | i | -2.8 | 1.4 | nt | 0.729
Cc1cccc(Oc2c(C=O)c3ccccc3n2C)c1 | -1.2 | 2.8 | nt | 1.1 | -1.3 | 0.5 | 0.663
COc1ccc(-c2nnc(SCCc3ccccc3)n2N)cc1 | 0.8 | -0.4 | nt | 6.9 | -1.5 | -2.4 | 0.747
COc1ccc(-n2c(Cc3cc(=O)[nH]c(=O)[nH]3)nnc2SCc2ccccc2)cc1 | 0.0 | 4.5 | nt | 9.3 | 4.2 | -15.9 | 0.709
S=c1[nH]nc(-c2ccn[nH]2)n1-c1ccccc1Cl | -4.2 | -1.6 | i | 2.4 | 0.6 | 57.7 | 0.662
COc1ccc(NC(=O)COn2nnc3ccc(Cl)cc32)cc1OC | 0.3 | -2.2 | i | -3.0 | 0.8 | -1.7 | 0.676
(next part)
SMILES | HNF4A DNA FP | LANA-H2B inh | FGF22 binding | B2AR ag | UCH37 DUB inh | ALR inh | E coli growth
CCCOc1ccc2oc(=O)c3c(c2c1)CCCN3C(=O)CN1CCN(c2ncccn2)CC1 | 0.5 | 3.6 | nt | -4.6 | 2.7 | 50.1 | 0.789
COc1ccc(C(CC(=O)N2CCN(C)CC2)NC(=O)C(F)(F)F)cc1 (stereo unspecified) | -2.6 | -1.2 | i | -5.1 | 3.5 | 0.3 | 0.697
COCC(=O)NNC(=O)c1ccc(OC)cc1 | 0.1 | -0.8 | nt | -2.0 | 0.2 | -4.4 | 0.689
Cc1ccc(S(=O)(=O)NC(=NCC(=O)O)c2ccc(F)cc2)cc1 | 2.6 | 4.6 | nt | -5.8 | 1.9 | -2.1 | 0.672
Cc1c(Cl)cnc(NC(=O)COC(=O)c2cccs2)c1Cl | -0.3 | 3.5 | i | 5.1 | 3.6 | 0.5 | 0.672
CN(C)C1(CNC(=O)C2CCN(S(=O)(=O)c3ccccc3C(F)(F)F)CC2)CCCCC1 | 0.4 | 4.2 | i | 6.4 | 0.1 | -12.6 | 0.662
O=C(c1cc2sccc2n1Cc1ccccc1)N1CCc2ccccc21 | -2.2 | 2.3 | nt | 37.8 | 2.2 | 16.6 | 0.742
Cc1ccc(/C=N/c2sc3c(c2C(N)=O)CCCC3)o1 | 2.0 | -3.1 | i | -10.1 | nt | -13.2 | nt
Cc1ccc(OC(C)C(=O)N2CCc3ccccc32)cc1 (stereo unspecified) | -3.9 | -0.7 | nt | -0.7 | 3.1 | -1.6 | 0.682
CCCn1c(SCC(=O)Nc2cccc(S(=O)(=O)NC3=NCCCCC3)c2)nc2ccccc2c1=O | -0.6 | -4.1 | i | 5.7 | 2.3 | -3.1 | 0.726

Shown as a hit in B2AR ag (from the list above):
SMILES | HNF4A DNA FP | LANA-H2B inh | FGF22 binding | B2AR ag | UCH37 DUB inh | ALR inh | E coli growth
O=C(CSc1ccccn1)c1ccc2c(c1)OCO2 | 1.3 | -1.6 | nt | 52.5* | 4.5 | 68.0 | 0.685

Assay outcomes as filed in PubChem BioAssay.
